Screening results deposited in PubChem BioAssay by Johns Hopkins Ion Channel Center.
KCNQ2 enhance: KCNQ2 (rat) channel potentiation. O88943. CHO-K1 KCNQ2, FluxOR thallium flux fluorescence; stronger effect = higher value. B-score at 10 µM. hit rate 0.54% among 310,000;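 active means fluorescence ratio B-score at least 3 SD of library B-scores, with initial fluorescence B-score within 3 SD, cut at about 5.3 in these data; same plate scores as AID 2156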;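 further: B-score of peak minus minimum over baseline fluorescence ratio after K+ and Tl+ stimulus; positive B-score means potentiation of KCNQ2 with more thallium influx and brighter signal; only the inactives scoring about 0 or higher are listed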
Target sequence (O88943 whole entry, looked up): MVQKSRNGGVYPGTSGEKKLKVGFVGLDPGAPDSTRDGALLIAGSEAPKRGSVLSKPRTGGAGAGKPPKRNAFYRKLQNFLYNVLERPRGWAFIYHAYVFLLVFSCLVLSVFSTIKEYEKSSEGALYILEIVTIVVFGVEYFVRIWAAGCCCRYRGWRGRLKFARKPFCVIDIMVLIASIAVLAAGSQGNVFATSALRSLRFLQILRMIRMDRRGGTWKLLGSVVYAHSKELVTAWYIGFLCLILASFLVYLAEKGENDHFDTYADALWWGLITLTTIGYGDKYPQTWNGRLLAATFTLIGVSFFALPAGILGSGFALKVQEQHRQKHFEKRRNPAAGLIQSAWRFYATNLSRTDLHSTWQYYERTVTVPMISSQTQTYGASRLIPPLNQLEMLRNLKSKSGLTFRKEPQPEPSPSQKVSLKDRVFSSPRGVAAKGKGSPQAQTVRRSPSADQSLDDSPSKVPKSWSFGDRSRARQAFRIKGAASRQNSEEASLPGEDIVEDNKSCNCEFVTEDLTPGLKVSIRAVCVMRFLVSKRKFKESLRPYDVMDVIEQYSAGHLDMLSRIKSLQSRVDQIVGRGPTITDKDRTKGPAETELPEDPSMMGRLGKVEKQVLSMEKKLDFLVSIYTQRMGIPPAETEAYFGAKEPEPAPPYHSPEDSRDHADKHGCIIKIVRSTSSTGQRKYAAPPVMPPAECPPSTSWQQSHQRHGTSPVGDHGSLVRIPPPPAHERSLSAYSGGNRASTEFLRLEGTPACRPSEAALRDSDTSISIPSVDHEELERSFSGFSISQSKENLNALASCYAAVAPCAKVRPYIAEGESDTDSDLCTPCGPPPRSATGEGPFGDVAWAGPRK
KCNQ2 enhance baseline: second read-out of KCNQ2 enhance, no call of its own (marks repeat the call); B-score; compound at 10 µM; measured here: initial fluorescence intensity artifact check;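 brightness before thallium and not channel activity; 0 = typical well and far values either way flag optical interference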
* marks the source's active call; other numbers are inactive results. This is a subset; rates above refer to the full screens.

No.	Molecule	KCNQ2 enhance	KCNQ2 enhance baseline
1	CN(C)C(=O)c1ccc(NC(=O)c2cc(-n3cnnc3)ccc2Cl)cc1	0.67	-0.64
2	CC[C@@H]1CN(C)[C@H]2Cc3c([nH]c4ccccc34)C(=O)C[C@@H]1[C@@H]2C(=O)OC	0.37	-1.1
3	C[C@H](NC(=O)OC(C)(C)C)C(=O)NCC1CCC(C(=O)N[C@@H](Cc2ccccc2)C(=O)O)CC1 (some centres undefined)	0.59	-5.2
4	Cc1ccc(NC2CCCN(C(=O)c3c(C)noc3C)C2)cc1C (centres undefined)	1.8	0.26
5	CCOC(=O)c1c(C)[nH]c2c1-c1ccccc1C(=O)C2=O	0.22	0.16
6	Cc1ccccc1CN(c1ccc(C(=O)Nc2ccccc2C(=O)NCc2ccco2)cc1)S(C)(=O)=O	0.43	-0.71
7	CN(C)CC/C=C1\c2ccccc2Sc2ccc(Cl)cc21	0.23	1.3
8	O=C(CCC1CCCCC1)NCc1ccccn1	0.89	-2
9	COc1ccc(C2=Nn3c(nnc3-c3ccccn3)SC2)cc1OC	0.05	0.38
10	CCc1ccccc1NC(=O)C1CCCN1C(=O)Nc1ccc(C)cc1 (centres undefined)	0.42	1.2
11	Cc1cccc(C(=O)N[C@H](C(=O)Nc2nc3ccccc3[nH]2)C(C)C)c1	0.95	-2.3
12	Cc1cc(C(=O)N/N=C/c2cccn2C)no1	0.84	-0.13

Going on with the list.
No.	Molecule	KCNQ2 enhance	KCNQ2 enhance baseline
13	CCN(CC)S(=O)(=O)c1ccc(NC(=O)c2cc(-c3ccccc3)nc3ccccc23)cc1	0.09	-0.84
14	COCCCNC(=O)Cn1c(=O)n(Cc2ccccc2Cl)c(=O)c2cc(OC)c(OC)cc21	0.13	0.38
15	Cn1c2c(c(=O)n(C)c1=O)C(NC(=O)c1ccco1)(C(F)(F)F)C(=O)N2 (centres undefined)	1.2	-0.23
16	CC(C)C(NS(=O)(=O)c1cccs1)C(=O)N(C)Cc1ccccc1 (centres undefined)	0.12	-1.1
17	Cc1ccccc1-n1c(C)nc2ccccc21	0.48	-1
18	CCS(=O)(=O)C1=NN2C(=N)/C(=C\c3ccc(OS(=O)(=O)c4ccccc4)c(OC)c3)C(=O)N=C2S1	2.6	-0.67
19	Cc1ccccc1/C=N\NC(=O)c1ccc(Cn2cccn2)o1	1.1	0.79
20	O=c1c2cc3c(=O)n(CC4CCCO4)c(=O)c3cc2c(=O)n1CC1CCCO1 (centres undefined)	0.41	-0.78
21	Cc1[nH]c2ccccc2c(=O)c1C(=O)/C=C/c1ccccc1	1.2	-0.11
22	O=C(CSCc1ccc(F)cc1)N1CCOCC1	0.83	0.71
23	CC(=O)c1cccc(NC(=O)C2COc3ccccc3O2)c1 (centres undefined)	0.5	0.73
24	CC(=O)Nc1ccc(Oc2nc(C)cc(C)n2)cc1	1.6	-0.57

Next section:
No.	Molecule	KCNQ2 enhance	KCNQ2 enhance baseline
25	Cc1noc(C)c1COC(=O)c1ccc(N(C)C)cc1	0.8	0.34
26	O=C(N/N=C/c1ccc(Br)cc1)c1cc[n+](Cc2ccccc2)cc1	0.52	0.13
27	COc1c2c(cc3oc(=O)c4c5ccc(O)cc5oc4c13)OC(C)(C)CC2	1.4	-1.1
28	CC(=O)c1cccc(N(C(=O)Cn2nnc3ccccc32)C(C(=O)NC2CCCCC2)c2cn(C)nc2C)c1 (centres undefined)	1.5	1.4
29	Cc1nnc2ccc(N3CCC4(CC3)OCCO4)nn12	0.56	0.71
30	C/C(=C(\C#N)C(=O)NCc1ccccc1)N(C)C	0.37	0.82
31	CCN1CCC2(CC1)N=C(c1ccc(F)cc1)C(=S)N2C(=O)c1ccc(C)cc1	1.1	0.98
32	CCCCCCCC(=O)N/N=C/c1ccncc1	2.1	-0.7
33	Cc1ccc(C(=O)N2CCN(C)CC2)cc1S(=O)(=O)N1CCOCC1	0.02	1.7
34	CC12CN(Cc3ccccc3)CC(C)(CN(Cc3ccccc3)C1)C2=O	0.67	-0.19
35	Cc1cc(NC(=O)c2c(Cl)c(C)nn2C)no1	0.04	-1
36	CCCCCC(=O)N/N=C(\C)c1ccccn1	0.16	2

(next part)
No.	Molecule	KCNQ2 enhance	KCNQ2 enhance baseline
37	COc1ccc(S(=O)(=O)Nc2ccc(S(=O)(=O)N3CCOCC3)cc2)cc1C	0.26	-1.4
38	COC(=O)CC1SC(=O)NC1=Nc1ccc(O)cc1 (centres undefined)	0.02	0.01
39	COc1ccc(C(=O)N=c2nc3ccccn3s2)cc1	1.5	0.22
40	COC(=O)c1nc2cc3c(cc2c(C)c1C(=O)OC)OCO3	0.17	-0.05
41	O=C(Nc1ccncc1)C1CCN(S(=O)(=O)c2ccc(Cl)cc2)CC1	1.2	-0.01
42	O=C(O)/C=C/C(=O)NCCc1cccc(Cl)c1	1	-0.29
43	C[C@H]1C=C(C(=O)NC2CC2)O[C@@H](OCc2ccc(CO)cc2)C1	0.45	0.17
44	C[N+]1(CC(=O)OC2CCCCCCCCCCC2)CCCC1	0.84	-0.7
45	CSc1cccc(NC(=O)C2CCN(C(=O)c3ccccc3C)CC2)c1	0.42	0.34
46	COc1ccccc1NC(=O)c1nc[nH]c1C(=O)Nc1ccccc1OC	0.33	0.76
47	COc1ccc(CCNC(=O)c2ccc(CNS(=O)(=O)c3ccccc3)cc2)cc1OC	0.23	0.38
48	O=C(COc1ccc2c3c(c(=O)oc2c1)CCC3)NCc1ccccn1	0.61	-1.8

Continued.
No.	Molecule	KCNQ2 enhance	KCNQ2 enhance baseline
49	O=C1OC(N2CCN(C/C=C/c3ccccc3)CC2)c2ccccc21 (centres undefined)	0.7	0.91
50	CC(C(=O)NCC1(c2ccccc2)CCCC1)N1CCCC1 (centres undefined)	1.8	-0.08
51	CCOc1ccnc(OCC)c1Br	3	-2
52	CN(C)CCNC(=O)C1CCN(S(=O)(=O)c2ccc3ccccc3c2)CC1	0.02	3
53	CCn1c(=O)cc(N2CCC3(CC2)OCCO3)[nH]c1=O	0.28	-0.36
54	O=C(Nc1nnc(-c2ccc(F)cc2)o1)c1cc(Cl)sc1Cl	16*	2.9*
55	O=C(Nc1cccnc1)Nc1cc(Cl)cc(Cl)c1	1.5	-0.69
56	CC(C)(C)C(=O)N1CCN(c2ccnc3cc(Cl)ccc23)CC1	0.31	3
57	COc1cccc(NC(=O)CSc2nc(O)c(C)c(=O)n2-c2ccc(C)cc2)c1	0.06	-1.2
58	COc1ccc(C2C3=C(CCCC3=O)Nc3nc(SCc4ccccc4)nn32)cc1OC (centres undefined)	0.52	0.48
59	Cc1ccc(-c2nnn(CC(=O)Nc3ccc4nn(-c5ccccc5)nc4c3)n2)o1	0.61	-1.2
60	COc1ccc(C(=O)N2CCCCCCC2)cc1OC1CCN(C(C)C)CC1	1.9	1.7

Compound profiles, from the list above. Values in the order: KCNQ2 enhance, KCNQ2 enhance baseline
Entry for `CN(C)CCNC(=O)C1CCN(S(=O)(=O)c2ccc3ccccc3c2)CC1` = 0.02, 3
Entry for `CCn1c(=O)cc(N2CCC3(CC2)OCCO3)[nH]c1=O` = 0.28, -0.36
Entry for `COc1cccc(NC(=O)CSc2nc(O)c(C)c(=O)n2-c2ccc(C)cc2)c1` = 0.06, -1.2

Going on with the list:
No.	Molecule	KCNQ2 enhance	KCNQ2 enhance baseline
61	O=C(O)C1[C@H]2C(=O)N(C3CCCC3)C[C@]23C=C[C@H]1O3 (some centres undefined)	0.65	-1.3
62	O=C(NC(=S)Nc1ccccc1N1CCOCC1)c1cccc([N+](=O)[O-])c1	0.27	-0.2
63	O=C(Cn1cnc([N+](=O)[O-])c1)c1ccc(Cl)cc1	0.31	-1.9
64	CCc1ccc2[nH]c(=O)c(-c3ccccc3)c(O)c2c1	1.4	-0.38
65	CCc1nc2oc3ccccc3c(=O)c2cc1C(=O)OC	0.37	-0.06
66	OCCNCc1ccc(-c2ccccc2)cc1	1	-1.4
67	CC12C(=O)N(c3ccc(C(=O)N4CCOCC4)cc3)C(=O)C1C1c3ccccc3C2c2ccccc21 (centres undefined)	2.2	3.6
68	CCOc1ccc(-n2c(=O)c3sccc3n(Cc3cccc([N+](=O)[O-])c3)c2=O)cc1	0.75	-1.7
69	CC(NC(=O)Cc1cccs1)C(c1cccs1)N1CCN(c2ccccc2)CC1 (centres undefined)	8.2*	-2.9*
70	O=C(CCCn1c(=O)c2cccn2c2cccnc21)N1CCN(c2ccccc2F)CC1	0.82	-0.26
71	O=C(c1ccco1)N1CCN(c2ncnc3c2oc2ccccc23)CC1	0.45	-0.25
72	COc1ccc(Nc2nc(N)nc(CN3CCC(C)CC3)n2)cc1	0.51	-0.24

Continued.
No.	Molecule	KCNQ2 enhance	KCNQ2 enhance baseline
73	COC(=O)c1cc(C)sc1NC(=O)C1CC=CCC1C(=O)O (centres undefined)	0.82	1.7
74	CN1C(=O)CSc2ccc(NC(=O)NCc3ccc(F)cc3)cc21	1.7	-0.84
75	O=C(OCc1c(Cl)cccc1Cl)c1ccccn1	1.8	0.69
76	COc1ccc(-c2csc(NC(=O)CSCC(=O)Nc3cc(C)on3)n2)cc1OC	0.7	-0.15
77	NC(=O)c1cc2ccccc2o/c1=N/NC(=O)c1ccccc1	1.6	0.87
78	CC(/C=C1\SC(=S)N(CCC(=O)Nc2cccc(C(=O)O)c2)C1=O)=C\c1ccccc1	0.25	-0.44
79	O=C(Nc1nc2c(s1)CN(Cc1ccccc1)CC2)c1c(F)cccc1F	0.12	0.69
80	CCN(CC)c1ccc(/C=N/NC(=O)c2cccc(N3CCCC3=O)c2)cc1	0.73	0.17
81	CC(NC(=O)c1ccccc1SCC(=O)N1CCCC1)c1ccc(F)cc1 (centres undefined)	0.06	0.3
82	Cc1ccc(-c2nc(CS(=O)(=O)CC(=O)NC3CC3)c(C)o2)cc1	0.83	-0.24
83	CC(=O)Nc1ccc(-c2csc(NCc3ccco3)n2)cc1	0.46	0.71
84	CCOC(=O)/C(C#N)=C/c1cn(CCC(=O)O)nc1-c1cccc(Br)c1	0.56	-0.2

Other entries
No.	Molecule	KCNQ2 enhance	KCNQ2 enhance baseline
85	CCc1nc(SCC(=O)NCC2CCCO2)c2c(=O)n(C)c(=O)n(C)c2n1 (centres undefined)	0.01	-0.43
86	Cc1cccc(-n2c(N)cc(=O)nc2SCC(=O)Nc2nnc(C)s2)c1	0.04	-0.55
87	O=C(NCc1cccc(Cl)c1)c1cnccn1	0.75	2.8
88	O=C(OCc1nnc(-c2ccccc2)o1)C1=COCCO1	0.67	-0.53
89	O=C(N1CCOCC1)N1CCN(S(=O)(=O)c2ccccc2)C1	0.26	-1.5
90	Cc1cccc(C(=O)Nc2ccc(O)cc2C(=O)O)c1	0.38	-0.74
91	CCc1ccc(-n2c(C)nc3cc(C(=O)NCc4cccnc4)ccc32)cc1	1.4	-0.67
92	O=C(Nc1cccc(NC(=O)c2cccs2)c1)c1ccc2c(c1)OCO2	0.35	-0.69
93	O=C(c1cccc(Cl)c1)N1CCN(Cc2ccccc2)CC1	1.2	0.16
94	c1ccc2c(CSc3nnc(-c4ccncc4)o3)cccc2c1	0.48	-0.06
95	COCC(=O)Nc1cc(Cl)ccc1C(F)(F)F	0.1	0.21
96	CCOC(=O)N1CCN(c2nc(-c3ccc(OC)cc3)no2)CC1	0.38	-0.75

More results
No.	Molecule	KCNQ2 enhance	KCNQ2 enhance baseline
97	COc1ccc(C(=O)N/C(=C\c2cn(C)c3ccccc23)C(=O)NCCN2CCOCC2)cc1OC	0.48	0.38
98	COc1ccc(N2CCN(C(=O)COC(=O)c3cccc(S(=O)(=O)Nc4cccc(C)c4)c3)CC2)cc1	1.3	-1.1
99	Cc1ccccc1-n1cc(CNC(=O)CC2C(=O)NCCN2C/C=C/c2ccccc2)cn1 (centres undefined)	2.7	-0.56
100	O=C1OC(Nc2ccccn2)c2ccccc21 (centres undefined)	0.21	-1.1
101	CCOc1ccc(NC(=O)CSC2=NCCN2)cc1	0.8	-0.8
102	O=C(CNC(=O)c1ccc(OC(F)F)cc1)Nc1cccc(S(=O)(=O)N2CCCC2)c1	0.31	-1.2
103	Nc1ccc(O)c(-c2nc3ccccc3s2)c1	0.18	0.01
104	COc1cc(/C=C2\SC(=S)N(Nc3ncc(C(F)(F)F)cc3Cl)C2=O)ccc1O	1.8	0.05
105	Cc1ccc(S(=O)(=O)N2CCCC(C(=O)N3CCN(C)CC3)C2)cc1 (centres undefined)	1.2	-0.49
106	CCNc1nc(NCC)n2c(SC(C)C(=O)c3ccc(C)cc3)nnc2n1 (centres undefined)	0.81	0.65
107	Cc1ccc(NC(=O)CNC(=O)C2CCCCC2)nc1	0.07	-0.49
108	CCN(CC)c1ccc(N2C(=O)c3ccccc3C2=O)cc1	1.2	0.58

(continued)
No.	Molecule	KCNQ2 enhance	KCNQ2 enhance baseline
109	CCN1CCN(CCNC(=O)c2ccc(CS(=O)c3ccc(Br)cc3)o2)CC1 (centres undefined)	5.6*	1.1*
110	N#CC1=C(N)N2C(=C(C#N)C1c1ccc(Br)cc1)Nc1ccccc12 (centres undefined)	1.4	-1.3
111	C[n+]1nc(Nc2ccccc2)sc1-c1ccc(O)cc1	0.9	-1.1
112	COc1ccccc1CC(=O)Nc1cc(C)ccn1	0.3	-3.4
113	O=C1c2ccccc2C(O)N1c1cccnc1 (centres undefined)	0.04	-1

3 records picked at random from the list so far, as already listed:
No.	Molecule	KCNQ2 enhance	KCNQ2 enhance baseline
110	N#CC1=C(N)N2C(=C(C#N)C1c1ccc(Br)cc1)Nc1ccccc12 (centres undefined)	1.4	-1.3
113	O=C1c2ccccc2C(O)N1c1cccnc1 (centres undefined)	0.04	-1
112	COc1ccccc1CC(=O)Nc1cc(C)ccn1	0.3	-3.4
